Mtb bLac sens: beta-lactam sensitization of Mtb H37Rv; M. tuberculosis H37Rv growth with meropenem, percent inhibition; hits of this screen are not shown here; inhibition, % at 25 µM; 0.27% of 330,000 active; AID 434955;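 active = about 74% or more and at least 40 points above the plate without the antibiotic, then above 30% in a dose series; inconclusive = first-round hits that could not be retested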;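 note: growth measured after seven days incubation then overnight dye step; 0% = bacteria only wells and 100% = bacteria with antibiotic; twin plates without the antibiotic show which effects depend on it; some results filed as inactive read as strong as hits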
Mtb H37Rv: M. tuberculosis H37Rv growth inhibitors, H37Rv strain (AID 1626); M. tuberculosis H37Rv growth inhibition; higher % means a stronger effect; inhibition, % at 10 µM, or IC50 in µM where a hit was titrated; 0.95% of 220,000 active;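 active = confirmed in a dose series; inconclusive = inhibition above 80% but not taken into the dose series; inactive = below 80% or under 30% at every dose of the series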;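 note: bacteria incubated seven days before Alamar blue readout; 0% = bacteria only wells and 100% = bacteria with antibiotic wells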
YopH PTP inh: YopH (Yersinia) phosphatase inhibition; fluorescence Ex485/Em525; inhibition, %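 (about 10 µM by stock and volumes)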; 0.16% of 140,000 active; AID 898;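 active = inhibition of 50% or more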;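 note: controls were vehicle for no effect and minimum signal wells for full effect; inactives centre near -20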
RecA splice inh: Mtb RecA intein splicing inhibition; P9WHJ3; cell-free RecA intein splicing, fluorescence; inhibition, %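 (about 9 µM by stock and volumes)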; 0.75% of 290,000 active; in the data active = inhibition above about 30%; inconclusive = no clear call, values can overlap the other calls;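 note: 0% = vehicle wells and 100% = reference inhibitor control wells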
Target sequence (P9WHJ3 whole entry, looked up, canonical isoform): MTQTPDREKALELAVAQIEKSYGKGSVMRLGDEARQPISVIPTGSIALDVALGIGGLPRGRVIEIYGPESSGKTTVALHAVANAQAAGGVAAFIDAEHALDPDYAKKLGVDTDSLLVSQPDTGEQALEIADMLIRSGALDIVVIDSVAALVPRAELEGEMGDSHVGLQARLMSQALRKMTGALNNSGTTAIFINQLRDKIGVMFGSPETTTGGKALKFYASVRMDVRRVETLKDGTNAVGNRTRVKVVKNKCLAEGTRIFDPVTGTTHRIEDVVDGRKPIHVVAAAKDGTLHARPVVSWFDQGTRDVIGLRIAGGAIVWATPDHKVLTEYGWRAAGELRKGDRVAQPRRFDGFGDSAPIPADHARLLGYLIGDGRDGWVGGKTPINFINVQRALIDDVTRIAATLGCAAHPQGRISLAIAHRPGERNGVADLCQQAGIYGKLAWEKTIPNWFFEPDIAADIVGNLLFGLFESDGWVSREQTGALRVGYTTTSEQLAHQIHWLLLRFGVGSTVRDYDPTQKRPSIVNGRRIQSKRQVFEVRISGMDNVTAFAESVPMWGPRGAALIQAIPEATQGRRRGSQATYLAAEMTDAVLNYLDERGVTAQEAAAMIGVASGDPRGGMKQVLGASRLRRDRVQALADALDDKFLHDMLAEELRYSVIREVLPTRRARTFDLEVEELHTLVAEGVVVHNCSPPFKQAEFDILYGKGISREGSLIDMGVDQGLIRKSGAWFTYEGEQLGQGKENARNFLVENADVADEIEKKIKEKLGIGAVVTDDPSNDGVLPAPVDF
Arbovirus inh: arbovirus infection inhibition; arbovirus infection cell-based antiviral screen; inhibition, % at 10 µM; 0.37% of 200,000 active;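 active = inhibition from about 30%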;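 note: bluetongue infection of BSR cells; cell survival read as ATP light after 72 h; 0% = infected wells without compound and 100% = uninfected wells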
Arbovirus inh repeat: recorded beside Arbovirus inh, whose call it bears; inhibition, %; measured here: 10K subset replicate screen; many hits read low in the repeat;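 first of two repeat runs on a subset; 0% = infected and 100% = uninfected wells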
* hit, by the source's call; ? = inconclusive; . = no result given; & = joins results of further samples. These rows are one share of the data. The share of hits here may be higher or lower than overall.

SMILES | Mtb bLac sens | Mtb H37Rv | YopH PTP inh | RecA splice inh | Arbovirus inh | others
O=C(NC(Cc1c[nH]c2ccccc12)C(=O)OCC(=O)c1cccc2ccccc12)c1cccs1 (configuration not stated) | 0 | -12% | -26 | -1.7 | 13
O=C(CSc1nnc2c(n1)[nH]c1ccccc12)NCc1ccccc1F | -2 | . | . | -1.0 | .
COc1cccc(CNCCc2ccccc2)c1OC | -8 | -1% | . | -0.1 | -3
CCN(C(=O)COC(=O)CNC(=O)c1ccc2ccccc2c1)C1CCS(=O)(=O)C1 (configuration not stated) | 5 | 0% | . | 0.2 | 5
COc1ccc(OC)c(C(=O)NC(CC(N)=O)c2ccc(NCc3ccc(F)c(F)c3)c([N+](=O)[O-])c2)c1 (configuration not stated) | 99 | . | . | -1.0 | .
CC1CCc2c(C(=O)Oc3cccc(-n4cnnn4)c3)csc2C1 (configuration not stated) | 38 | -7% | -38 | 7.6 | 17
C=CCn1c(N)c(C(=O)Nc2ccc(C)c(C)c2)c2nc3ccccc3nc21 | -3 | 4% | -72 | 1.7 | 1
Cc1cc([N+](=O)[O-])cc2c1NC(=O)C2(O)N1CCCCCC1 (configuration not stated) | 5 | 18% | -14 | -2.1 | -2
O=C(COC(=O)c1ccccc1Br)Nc1ccc2[nH]c(=O)[nH]c2c1 | -4 | . | . | -2.1 | .
CCCCN(CC)S(=O)(=O)c1ccc(C(=O)N(CCCN(C)C)c2nc3cc(C)cc(C)c3s2)cc1 | 86 | 12% | . | 9.4 | -33
CCOC(=O)C1CCN(C(=O)CNS(=O)(=O)c2ccc(Br)s2)CC1 | -9 | 1% | -33 | 0.8 | 10
Clc1ccccc1N=C1SCCS1 | -5 | 11% | . | -0.4 | .
O=C(CN1CCC(n2nnc3cc(F)ccc32)CC1)N1CCCc2ccccc21 | -10 | -3% | 8 | -0.3 | -15
CCOc1cc(CO)c(Br)cc1OCC(=O)O | ? | -9% | -31 | -1.4 | 3
CC1(c2ccc3ccccc3c2)NC(=O)N(CC(=O)O)C1=O (configuration not stated) | 3 | . | . | -1.0 | .
COc1ccc(C(=O)CSc2nnc(CNc3ccc(C)cc3C)n2Cc2ccco2)cc1 | -9 | -5% | -37 | 1.0 | -7
Cc1cccc(N(CC(=O)NC2CCCC2)C(=O)CCCC(=O)Nc2ccccn2)c1 | -17 | -6% | -9 | -2.0 | -3
COc1ccc(Cc2c(O)nc(SCC(=O)N3CCCCCC3)[nH]c2=O)cc1 | 0 | 6% | -34 | 0.9 | 3
O=C(O)CCC(=O)N1CCc2cc(S(=O)(=O)N3CC=C(c4ccccc4)CC3)ccc21 | 4 | -6% | -35 | 0.8 | 15 | Arbovirus inh repeat=10
NC(=O)C1CCN(C(=O)CCC(=O)c2ccc(Br)cc2)CC1 | -9 | 5% | . | 2.9 | 4
CC(C)CCNC(=O)NC(=O)COC(=O)c1cc(S(=O)(=O)N2CCOCC2)ccc1N1CCCCC1 | 0 | 0% | -1 | -2.6 | 8
CCOC(=O)N1CCN(c2ccc(C(F)(F)F)cn2)CC1 | -4 | -2% | -13 | -3.6 | 5
Cc1ccc(C(C)C)c(OCC(=O)NN=C2CCCC2)c1 | -2 | -2% | . | 4.7 | -5
O=C1c2ccccc2NC(c2ccc([N+](=O)[O-])cc2)N1O (configuration not stated) | -3 | -1% | . | -3.2 | -19
Cc1cc(C(=O)NC(CC(C)C)C(=O)O)cc(C)c1[N+](=O)[O-] (configuration not stated) | -6 | 0% | -16 | -1.1 | -1

Reprinted at random: 4 records from the list
SMILES | Mtb bLac sens | Mtb H37Rv | YopH PTP inh | RecA splice inh | Arbovirus inh | others
O=C(CN1CCC(n2nnc3cc(F)ccc32)CC1)N1CCCc2ccccc21 | -10 | -3% | 8 | -0.3 | -15
O=C(CSc1nnc2c(n1)[nH]c1ccccc12)NCc1ccccc1F | -2 | . | . | -1.0 | .
CC1CCc2c(C(=O)Oc3cccc(-n4cnnn4)c3)csc2C1 (configuration not stated) | 38 | -7% | -38 | 7.6 | 17
Cc1cc(C(=O)NC(CC(C)C)C(=O)O)cc(C)c1[N+](=O)[O-] (configuration not stated) | -6 | 0% | -16 | -1.1 | -1

(more compounds)
SMILES | Mtb bLac sens | Mtb H37Rv | YopH PTP inh | RecA splice inh | Arbovirus inh | others
Cc1ccc(NC(=O)CCNS(=O)(=O)c2ccc3c(c2)CCC(=O)N3)c(Br)c1 | -1 | . | . | -1.6 | .
CC12CC(O)C3c4ccc(O)cc4CCC3C1CCC2=O (configuration not stated) | -2 | 4% | . | -0.8 | 0
CN(C)CC(C)(C)CNS(=O)(=O)c1ccc(Cl)c(Cl)c1 | -1&7 | -2%&-8% | -2 | 0.4&-3.9 | -8&-8
N#Cc1ccc(CSc2nc(N)cc(=O)[nH]2)cc1 | -2 | . | . | -2.4 | .
CCOC(=O)/C(=N\NC(=O)c1ccccc1)c1ccccc1 | 10 | -6% | -6 | -1.2 | 5
CC1CCCCN1CCCNC(=O)CN1C(=O)CSc2ccc(S(=O)(=O)N3CCOCC3)cc21 (configuration not stated) | -1 | . | . | -0.4 | .
CNc1ccccc1C(C)(C)c1cc(-c2ccc(F)cc2)no1 | 8 | 8% | -13 | 2.6 | -4
CCc1noc(C)c1C(=O)N1CC(C)OC(C)C1 (configuration not stated) | -4 | 4% | -38 | -4.0 | -1
CCN(CC)S(=O)(=O)c1cccc(NC(=O)c2ccc(Sc3nncn3C)c([N+](=O)[O-])c2)c1 | -5 | 0% | . | 8.6 | 1
COc1ccc(Nc2nc(N/N=C/c3ccc(N(C)C)cc3)nc(C)c2[N+](=O)[O-])cc1 | 8 | 5% | -23 | 0.8 | -7
N=c1c2c3c(sc2ncn1CCCO)CCCC3 | -2 | 1% | -21 | -2.4 | 5
COC(=O)C[N+](C)(C)CC#Cc1ccccc1 | -6 | -13% | -18 | -4.7 | 4
COc1cccc2cc(C(=O)C3=C(O)C(=O)N(CCN4CCOCC4)C3c3ccc(C(C)(C)C)cc3)oc12 (configuration not stated) | 5 | . | . | 12 | .
CC(CCN1CCN(c2ccccc2)CC1)c1ccccc1 (configuration not stated) | -6 | . | . | -1.9 | .
COc1ccc(CC(=O)NNC(=S)NCC2CC2)cc1OC | -8 | -13% | . | -6.3 | .
CC(C)OCCCN1CN(S(=O)(=O)c2ccc(Cl)cc2)c2nc3ccccc3nc21 | -3 | -13% | -13 | 8.4 | 6
CN(CC(=O)Nc1ccc(SC(F)F)cc1)C1CCCCC1 | -5 | -10% | . | 0.5 | -9
O=C(Nc1ccccc1C(F)(F)F)N1CCC(N2CCCCC2)CC1 | -4 | 1% | -19 | -1.0 | -1
O=C(O)C1(c2ccccc2)CCN(S(=O)(=O)c2cccs2)CC1 | -1 | -3% | . | -2.3 | 14
CCN=C1SC(C(=O)Nc2ccccc2)CC(=O)N1CC (configuration not stated) | 5 | -4% | -18 | 2.0 | 0
CN(C)CCNC(=O)/C(=N\O)c1ccccn1 | -5 | -20% | . | 0.5 | 6
Cc1ccc(C)c(CN2CCC(n3nccc3NC(=O)CCCc3ccccc3)CC2)c1 | 85 | . | . | 1.1 | .
CCc1c(C2(O)CCCCC2)[nH]c2ccc(C(F)(F)F)cc12 | 99 | . | . | 0.8 | .
C/C(CC1CC(C)OC1=O)=N\NC(N)=S (configuration not stated) | -7 | 12% | -11 | -0.7 | -8
O=C(N/N=C/C=N/NC(=O)c1ccco1)c1ccco1 | -4 | . | . | -0.4 | .

The last 3 records of the part before come first, to join the parts.
SMILES | Mtb bLac sens | Mtb H37Rv | YopH PTP inh | RecA splice inh | Arbovirus inh | others
CCc1c(C2(O)CCCCC2)[nH]c2ccc(C(F)(F)F)cc12 | 99 | . | . | 0.8 | .
C/C(CC1CC(C)OC1=O)=N\NC(N)=S (configuration not stated) | -7 | 12% | -11 | -0.7 | -8
O=C(N/N=C/C=N/NC(=O)c1ccco1)c1ccco1 | -4 | . | . | -0.4 | .
O=C(COc1ccccc1)N1CCN(c2ncccn2)CC1 | 4 | -7% | . | -2.6 | 4
O=C1CN(C(=O)COc2ccc(Br)cc2)c2ccccc2N1 | 14 | 1% | . | 3.7 | -4
c1ccc(C[C@H]2CNCCN2CCc2cccc3ccccc23)cc1 | 24 | . | . | 5.9 | .
O=C(Cc1ccc(Br)cc1)NCCc1ccc(Cl)cc1Cl | 7 | 2% | -17 | -3.2 | 8
S=C(c1c[nH]c2ccccc12)N1CCOCC1 | -1 | 2% | . | 1.2 | 3
Cc1cc(C)c(NC(=O)/C(C#N)=C/c2ccc(OCc3ccc(F)cc3)cc2)c(C)c1 | 4 | 5% | -9 | -6.9 | -3
O=c1[nH]c(CSc2ccccn2)nc2c1oc1ccccc12 | 4 | -3% | . | 4.1 | -8
Cc1cccc(NC(=O)C2(C)CC3c4ccccc4C2c2ccccc23)c1C (configuration not stated) | 2 | 1% | -18 | -2.7 | 7
Cc1ccc(S(=O)(=O)N2CCN(C(=O)Cc3c(F)cccc3Cl)CC2)cc1 | -1 | . | . | 0.7 | .
CCOc1ccc(C(C)NC(=S)NCc2ccc(Cl)cc2)cc1 (configuration not stated) | 5 | 12% | . | 0.2 | 5
CCCn1c(N)c(N(CCOC)C(=O)c2ccc(N3CCCC3=O)cc2)c(=O)[nH]c1=O | -6 | . | . | -2.9 | .
COc1ccc(CNC(=O)CCCn2nc(C)c3c(C)n(-c4ccc(C)cc4)nc3c2=O)cc1OC | 1 | . | . | -1.3 | .
O=C(NCc1ccc(F)cc1)c1ccccc1OCc1ccccc1 | 9 | 6% | -20 | 4.5 | -14
COc1ccc(CC(=O)n2nc(-c3ccc(Cl)cc3)nc2NCc2ccco2)cc1 | -7 | 12% | -6 | . | -13
CC1(C)Oc2ccc(C(=O)N3CCCC3)cc2N(CC(=O)NCc2ccccc2)C1=O | 5 | 6% | -33 | 1.5 | 0
Cc1ccc(CS(=O)(=O)Cc2ccc(C(=O)NCC3CCCO3)o2)cc1 (configuration not stated) | -2 | -7% | -20 | 0.1 | 3
COc1ccc(-n2c(=O)c3c4c(sc3n(CC(=O)Nc3cc(C)[nH]n3)c2=O)CCC4)c(OC)c1 | 5 | 3% | . | -0.9 | -7
O=C1C2C3C=CC(C3)C2C(=O)N1c1ccc(N2CCN(c3ccccn3)CC2)c([N+](=O)[O-])c1 (configuration not stated) | 9 | . | . | -0.1 | 8
COc1ccc(N2C(S)=C(C#N)C(=O)NC23CCCCC3)cc1 | -4 | -8% | . | -1.2 | -2
COc1ccccc1/C=C(/NC(=O)c1ccc(Cl)cc1Cl)C(=O)O | -6 | -2% | . | 7.5 | -3
COc1cc(NC(=S)N2CCN(CCO)CC2)cc(OC)c1 | 0 | . | . | 1.2 | .
Cc1ccc(NC(=O)c2cnccn2)c(OC(F)F)c1 | -4 | -3% | -8 | 0.5 | -6
CCc1cccc(NC(=O)c2cccc3c2C(=O)N(C2CCCCC2)C3)c1 | 60 | . | . | 3.5 | .
CCC(C)N(C(=O)COC(=O)c1nc2nc(C)cc(C)n2n1)C1CCS(=O)(=O)C1 (configuration not stated) | 3 | . | . | -0.9 | .
CCCCNC(=O)C1CCN(S(=O)(=O)N2CCCCCC2)CC1 | 1 | -4% | -20 | -7.5 | 5
SMILES | Mtb bLac sens | Mtb H37Rv | YopH PTP inh | RecA splice inh | Arbovirus inh | others
CC1(C)Cc2c(c(N3CCCC3)nc3sc4c(N5CCN(CCO)CC5)ncnc4c23)CO1 | 14 | . | -5 | . | -13
CCC(C)NC(=O)C1c2cc(OC)c(OC)cc2C(=O)N(C)C1c1ccc(OC)cc1 (configuration not stated) | -8 | -5% | 10 | -0.7 | 1 | Arbovirus inh repeat=0
COc1ccc(C(=O)NNC2=NCCCCC2)cc1 | -6 | -5% | . | -6.3 | 20
COc1cccc(/C=N/NC(=O)c2nc(-c3ccccc3)cc(-c3ccccc3)n2)c1O | 2 | 2% | -15 | -1.3 | -35
CCOc1ccccc1NC(=O)CSc1nnnn1Cc1ccccc1 | -5 | 1% | -48 | 1.7 | 14
COc1c(C)cccc1C(=O)Nc1ccc(N2CCN(S(C)(=O)=O)CC2)cc1 | 0 | -1% | -45 | -1.4 | 7
O=C(CN1c2ccccc2Sc2ccccc21)N/N=C/c1ccccc1 | 7 | 8% | . | -0.9 | .
Cc1cc(C)cc(N(CCC#N)C(=O)CSC2=Nc3ccccc3C3CC=NN23)c1 (configuration not stated) | -10 | 9% | . | 4.4 | -8
COc1cccc(-n2cnnn2)c1 | -9 | -6% | -11 | -2.3 | -2
CC(=O)Nc1cc[n+](C(C)C(=O)c2ccc(Cl)cc2)cc1 (configuration not stated) | -4 | -4% | . | 13 | -3
CCC(=O)Nc1cc(Cl)ccc1C(=O)O | 5 | 2% | -29 | 2.0 | 4
COc1ccc(OCC(=O)Nc2cc(C)c(Cl)cc2OC)c([N+](=O)[O-])c1 | -2 | -5% | -17 | 0.8 | -6
COc1ccccc1-n1cnnc1SCC(=O)N1CCOCC1 | -7 | . | . | -1.6 | .
